Compound activity as filed in PubChem.
Mtb betalactam = beta-lactam sensitization of Mtb H37Rv, H37Rv; M. tuberculosis H37Rv growth with meropenem, percent inhibition; hits of this screen are not shown here; inhibition, % at 25 µM; actives 0.27% (n = 330,000);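 active means about 74% or more and at least 40 points above the plate without the antibiotic, then above 30% in a dose series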;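 further: growth measured after seven days incubation then overnight dye step; 0% = bacteria only wells and 100% = bacteria with antibiotic; twin plates without the antibiotic show which effects depend on it; some results filed as inactive read as strong as hits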
The depositor's hits bear a star. Only part of the results is shown; count on the stated rates, not on these rows.

SMILES	Mtb betalactam
COc1cccc(-c2ccc3ncnc(NCc4cccs4)c3c2)c1	96
NC(=O)c1ccnc2c(O)cccc12	-3
CCCc1cc(=O)[nH]c(SCC(=O)NC2CC2)n1	-6
O=C(NCc1n[nH]c(=S)n1-c1ccccc1Cl)c1ccc(S(=O)(=O)N2CCCCC2)cc1	3
CC(=O)Nc1ccc(S(=O)(=O)NCC(=O)OCC(=O)NNC(=O)c2ccccc2)cc1	-4
CCN(CC)C(=O)CN1C(=O)C2(OCC(C)(C)CO2)c2ccccc21	4
Cc1noc(C)c1NC(=O)N(C)C[C@H]1Oc2c(NS(=O)(=O)c3cccs3)cccc2C(=O)N([C@H](C)CO)C[C@@H]1C	-7
O=C(CCNS(=O)(=O)c1ccccc1Cl)N1CCN(c2ccccn2)CC1	-8
O=C(CSc1nc2ccccc2c(=O)n1Cc1ccccc1)Nc1ccc(Br)cc1C(=O)O	-8
COC(=O)c1c(C)[nH]c(C(=O)OCc2csc(CC(=O)Nc3ccccc3C)n2)c1C	3
C[C@H](CO)N1C[C@H](C)[C@@H](CN(C)S(=O)(=O)c2ccc(F)cc2)Oc2ccc(NC(=O)Nc3ccc4c(c3)OCO4)cc2C1=O	95
CCOc1ccc(CN(C)C(=O)c2ccc3c(c2)NC(=O)C(C)S3)cc1OC (stereo not given)	5
C=CCC[C@@H](Cc1ccc(F)cc1)C(=O)OC[C@@H](NC(=O)[C@@H](CC=C)CC(=O)N(CCO)Cc1ccccc1)c1ccccc1	0
O=C(COC(=O)COc1ccccc1)Nc1ncc(Cl)cc1Cl	4
Cc1sc2ccccc2c1CNC[C@H]1O[C@@H](n2cnc3c(N)ncnc32)[C@H](O)[C@@H]1O	-5
O=C(CSc1n[nH]c(-c2ccc(Br)cc2)n1)NC1CCCC1	-7
[O-]/[N+](=C\c1ccccc1)c1ccc(Br)cc1	54
N#CCCN(C(=O)CSc1n[nH]c(=O)[nH]c1=O)c1ccccc1	4
CCCn1c(N)c(C(=O)CSc2nc3ncc(Cl)cc3[nH]2)c(=O)[nH]c1=O	3
COc1ccc(F)cc1C1=CC(=O)C[C@H](c2ccc3c(c2)OCO3)C1	-2
O=C(C[C@H]1C/C=C\C[C@H](Cc2ccc(F)cc2)C(=O)O[C@@H](c2ccccc2)CNC1=O)N[C@H](CO)Cc1ccccc1	-7
CCCc1nc2nc(C)c(NS(=O)(=O)c3ccc(CC(C)C)cc3)c(=O)n2[nH]1	-5
CCOC(=O)[C@H]1[C@H]2COc3ccc(OC)cc3[C@H]2N2C(=O)CNC(=O)[C@@]12C	2
COC(=O)[C@]1(C)N[C@H](CN(C)S(=O)(=O)c2ccc(C(F)(F)F)cc2)[C@@H]2C(=O)N(C)C(=O)[C@@H]21	0
O=C(c1ccc2c(=O)n(-c3ccccc3)c(=S)[nH]c2c1)N1CCN(c2ccccc2)CC1	-5

Next structures follow:
SMILES	Mtb betalactam
COc1ccc(S(=O)(=O)Nc2ccccc2OC)cc1N=Nc1c(O)[nH]c(=S)[nH]c1=O	5
C=CCn1c(N)cc(=O)nc1SC(CC)C(=O)Nc1ccc(C(C)=O)cc1 (stereo not given)	4
CCCCCCCC/C=C\CCCCCCCC(=O)NCCc1ccc(O)c(O)c1	7
COC(=O)C1=C(c2cccc(OCc3ccccc3)c2)C[C@@H]2CC[C@H]1N2C(=O)NCc1ccc(OC)cc1	-10
COc1ccc(C(=O)NCc2cccc(Cl)c2)cc1S(=O)(=O)N1CCOCC1	5
COc1ccc(CNC(=O)CN2CCN(S(=O)(=O)c3c(C)c(C)cc(C)c3C)CC2)cc1OC	-8
C=CCn1c(SCC(=O)Nc2cc(Cl)ccc2C(=O)O)nc2sc(C)c(C)c2c1=O	-8
O=C(CSC(=O)c1ccccc1)Nc1ccccc1F	18
CC(C)(C)c1ccc(CSc2ccc(S(=O)(=O)N3CCOCC3)cn2)cc1	68
COc1ccc(NC(=O)CN(C)S(=O)(=O)c2ccc(Br)s2)cc1OC	0
O=C(COC(=O)c1ccccc1O)Nc1cc(S(=O)(=O)N2CCCCCC2)ccc1Cl	-2
COc1ccccc1-c1nnc(SCC(=O)c2c(N)n(C3CC3)c(=O)[nH]c2=O)n1C	1
O=C(NC1CC1)C1CCN(S(=O)(=O)c2ccc(Cl)c([N+](=O)[O-])c2)CC1	0
CSc1ccccc1NC(=O)CN(C)C(=O)/C=C/c1ccccc1	1
Cc1c(NC(=O)COC(=O)c2ccc(O)cc2)c(=O)n(-c2ccccc2)n1C	-9
N=C(N)c1ccc(N)cc1	-10
O=C(NCC(c1ccco1)N1CCCC1)c1ccc(S(=O)(=O)Nc2ccccc2Cl)cc1 (stereo not given)	14
COc1cc(NC(=O)Cn2cnc3c(SC)nc(N)nc32)cc(OC)c1OC	-5
CN(C)S(=O)(=O)c1ccc(C(=O)Nc2ccc3nc(N4CCOCC4)sc3c2)cc1	-1
O=C(O)C1CCCCN1C(=O)c1ccc(S(=O)(=O)N2CCCCCC2)cc1 (stereo not given)	-4
Cc1ccsc1C(=O)NNC(=O)c1cccc(S(=O)(=O)N2CCCC2)c1	-5
CCCCOc1cc(NCc2ccccc2)c2ncn(C(C)C)c2c1	92
COc1cc(C(=O)OCC(=O)Nc2ccc(S(=O)(=O)NC3=NCCCCC3)cc2)cc(OC)c1OC	-4
O=C(CCS(=O)(=O)c1ccc(F)cc1)Nc1ccc(N2CCN(Cc3ccccc3)CC2)cc1	7
Cc1cc(F)ccc1S(=O)(=O)Nc1ccc(C(=O)N2CCCCCC2)cc1	2

New compounds follow
SMILES	Mtb betalactam
Cc1noc(C)c1NC(=O)Nc1cccc2c1O[C@H](CN(C)S(=O)(=O)c1c(C)noc1C)[C@@H](C)CN([C@H](C)CO)C2=O	0
Cc1ccccc1C(=O)NNC(=O)c1cc(S(=O)(=O)N2CCOCC2)ccc1C	-6
O=C(COC(=O)c1nn(CCO)c(=O)c2ccccc12)Nc1ccc(Cl)c(Cl)c1	-8
O=C(C[C@@H]1C/C=C\C[C@@H](Cc2ccc(F)cc2)C(=O)OC[C@@H]2CCCN2C1=O)N[C@H](CO)Cc1ccccc1	2
COc1ccc(NC(=O)COC(=O)c2ccc3ccccc3n2)cc1	17
CCN(CC)C(=O)c1[nH]cnc1C(=O)Nc1ccccc1	1
O=C(CNC(=O)c1ccccc1F)Nc1ccc2c(c1)OCO2	-5
CCOc1ccccc1NC(=O)CN1C(=O)NC(Cc2c[nH]c3ccccc23)C1=O (stereo not given)	2
CCN1C(=O)[C@H]2[C@@H](c3ccc(-c4ccc5c(c4)OCO5)cc3)N[C@@](Cc3ccccc3)(C(=O)OC)[C@H]2C1=O	-4
Cc1cc(C)c(OCCCCN(C)Cc2ccccc2)c(C)c1	1
CCN(CC(=O)Nc1cc(Cl)ccc1C)C(=O)C1CC1	-1
CCOC(=O)C1=C(COC(=O)CCc2ccc(F)cc2)NC(=O)NC1C (stereo not given)	-4
CN(C)Cc1c(C(C)(C)O)[nH]c2ccc(C(F)(F)F)cc12	-7
CC(C)n1nc(C(=O)NC2CCCCCC2)c2ccccc2c1=O	1
COC(=O)C1=C(c2cccc(OCc3ccccc3)c2)C[C@@H]2CC[C@H]1N2C(=O)NCc1ccccc1C(F)(F)F	4
C#CCOCCOCCOCCNc1nc(N2CCN(C(=O)CCCCCCCCCCNC(=O)[C@@H](CCC(=O)O)n3cc(CCCCCN)nn3)CC2)nc(N2CCN(C(=O)CCCCCCCCCCNC(=O)[C@H]([C@@H](C)CC)n3cc(CCCCCN)nn3)CC2)n1	-2
Cc1cccc(C(=O)OCC(=O)c2ccc(CC(=O)N3CCOCC3)s2)c1C	11
C#CCOCCOCCOCCNc1nc(N2CCN(C(=O)CCCCCCCCCCNC(=O)[C@H](CCCCN)n3cc(C[C@@H](C)CC)nn3)CC2)nc(N2CCN(C(=O)CCCCCCCCCCNC(=O)[C@@H]([C@H](C)O)n3cc(C)nn3)CC2)n1	98
Cc1ccccc1NC(=O)c1nc(S(C)(=O)=O)ncc1Cl	90
Cc1cccc(N2CCN(C(=O)c3ccc4nccnc4c3)CC2C)c1 (stereo not given)	6
Cc1ccc(S(=O)(=O)Nc2ccc(C(=O)NCCCN3CCOCC3)cc2)cc1[N+](=O)[O-]	5
NS(=O)(=O)c1cc(Cl)c(NC(=O)COC(=O)c2ccccn2)c(Cl)c1	-7
CCCN(C(=O)CSc1ccccc1C(=O)O)C1CCS(=O)(=O)C1 (stereo not given)	-2
CCOC(=O)[C@H]1[C@H]2COc3ccc(Cl)cc3[C@@H]2N2C(=O)CN(Cc3ccco3)C(=O)[C@@]12C	-1
C=CCN(C(=O)C1CC(=O)N(C2CCCC2)C1)c1nc(-c2ccc(S(C)(=O)=O)cc2)cs1 (stereo not given)	31

Quoted from the listing (2 entries):
SMILES	Mtb betalactam
Cc1noc(C)c1NC(=O)Nc1cccc2c1O[C@H](CN(C)S(=O)(=O)c1c(C)noc1C)[C@@H](C)CN([C@H](C)CO)C2=O	0
Cc1ccccc1C(=O)NNC(=O)c1cc(S(=O)(=O)N2CCOCC2)ccc1C	-6

More compounds follow.
SMILES	Mtb betalactam
CC(=O)c1sc(NC(=O)c2cc(S(=O)(=O)N3CCOCC3)ccc2F)nc1C	-3
COc1ccc2[nH]c3c(c2c1)CCNC3	-7
COc1ccccc1CNC(=O)COC(=O)c1ccc(C)s1	-3
COc1ccc(C(=O)OCC(=O)NC2CC2)cc1F	1
CC(C)NC(=O)N(C)C[C@H]1Oc2ccc(NS(=O)(=O)c3ccc(F)cc3)cc2C(=O)N([C@H](C)CO)C[C@@H]1C	16
CC(C)(C)c1ccc(C(=O)OCC(=O)NCc2ccco2)cc1	66
Cc1cccc(C)c1NC(=O)CNC(=O)c1ccc2c(c1)OCCO2	-7
O=C(CN1CCN(S(=O)(=O)c2ccccc2F)CC1)Nc1ccnn1C1CCCC1	-9
O=C(CSc1nnc(-c2ccccc2F)o1)NC1CC1	-1
Cc1onc(-c2ccccc2)c1C(=O)Nc1cccc(S(=O)(=O)NC2=NCCC2)c1	3
C=Cc1ccc(C2=CC(=O)C[C@H](c3ccc(OC)cc3)C2)cc1	5
O=C(COC(=O)CC1CCCC1)Nc1ccc(Cl)cn1	0
O=C(CCNC(=O)c1ccccc1)Nc1nc2ccccc2s1	-7
O=C(Nc1ccc(N2CCN(C(=O)c3cccs3)CC2)cc1)c1ccc(Br)o1	65
COc1ccc(-c2csc(NC(=O)c3cccc(N4C(=O)CCC4=O)c3)n2)cc1OC	2
O=C(Nc1ccc(S(=O)(=O)NC2=NCCCCC2)cc1)c1cccs1	0
Cc1c(C(=O)N2CCC2)oc2c(F)cccc12	-6
CC(OC(=O)c1n[nH]c2ccccc12)C(=O)Nc1ccccc1[N+](=O)[O-] (stereo not given)	-2
Cc1ccc(Cl)cc1Nc1nc(-c2cccnc2)cs1	85
CCN(Cc1cccs1)C(=O)CN1C(=O)NC2(CCCc3ccccc32)C1=O (stereo not given)	0
COc1ccc(CC(=O)OCC(=O)Nc2c(C)n(C)n(-c3ccccc3)c2=O)cc1OC	-5
CCOc1ccccc1C(=O)NCC(=O)NCC(C)(C)N1CCOCC1	2
O=C(CCC(=O)N1CCN(c2ccccn2)CC1)c1ccc(Cl)s1	42
CCOc1ccccc1OCCCC(=O)Nc1cc(S(=O)(=O)N2CCOCC2)ccc1OC	0
CCOC(=O)[C@H]1[C@H]2COc3ccc(Br)cc3[C@@H]2N2C(=O)CN(Cc3ccc(OC)cc3)C(=O)[C@@]12C	4

Molecules from the list above that have bromine (6):
SMILES	Mtb betalactam
O=C(CSc1nc2ccccc2c(=O)n1Cc1ccccc1)Nc1ccc(Br)cc1C(=O)O	-8
O=C(CSc1n[nH]c(-c2ccc(Br)cc2)n1)NC1CCCC1	-7
[O-]/[N+](=C\c1ccccc1)c1ccc(Br)cc1	54
COc1ccc(NC(=O)CN(C)S(=O)(=O)c2ccc(Br)s2)cc1OC	0
O=C(Nc1ccc(N2CCN(C(=O)c3cccs3)CC2)cc1)c1ccc(Br)o1	65
CCOC(=O)[C@H]1[C@H]2COc3ccc(Br)cc3[C@@H]2N2C(=O)CN(Cc3ccc(OC)cc3)C(=O)[C@@]12C	4

(list continues)
SMILES	Mtb betalactam
COc1cccc(NC(=O)[C@@H]2CCC(=O)N2C2OC(=O)c3ccccc32)c1 (stereo not given in full)	-2
COC(=O)C1CCN(C(=O)COC(=O)c2cc([N+](=O)[O-])ccc2N2CCOCC2)CC1	-4
COc1ccccc1NS(=O)(=O)c1ccc(C(=O)NCC(c2ccco2)N(C)C)cc1 (stereo not given)	-7
C=CCn1cnnc1SCC(=O)N(C)CC1COc2ccccc2O1 (stereo not given)	-10
COC(=O)[C@H](CC(C)C)N(Cc1ccccc1)S(=O)(=O)N(Cc1ccccc1)[C@@H](CC(C)C)C(=O)OC	-4
CCc1ccc(Nc2n[n+](-c3ccccc3)c(-c3cccc(Cl)c3Cl)s2)cc1	-2
CC1CCCCC12NC(=O)N(CC(=O)NNC(=O)c1ccc(Br)cc1)C2=O (stereo not given)	2
c1ccc(C[C@H]2CN=C(Nc3ccccc3)N2CC2CCCCCC2)cc1	5
CCCCN1CC(=O)N2[C@H]3c4ccc(OC)cc4OC[C@@H]3[C@H](c3ccccc3)[C@]2(C)C1=O	5
O=C(Nc1ccccc1)[C@@H]1CCCN1S(=O)(=O)c1ccc(Cl)cc1	1
N#Cc1ccc(Nc2nc(-c3ccc(O)cc3O)cs2)cc1C(F)(F)F	85
Cc1ccccc1S(=O)(=O)N1[C@@H](c2ccccc2)C(C(=O)O)=CC[C@H]1c1ccc(Cl)cc1	-3
O=C(CN1C(=O)NC2(CCCC2)C1=O)Oc1ccc2ccc(=O)oc2c1	1
CCC(O)C(C)(C)C (stereo not given)	-5
O=C(CSc1ccccn1)N1CCNC1=O	-2
Cn1c(SCC(=O)NCC2CCCO2)nc2scc(-c3ccccc3)c2c1=O (stereo not given)	-4
CCOCCCNCC(=O)Nc1cc(S(=O)(=O)N2CCOCC2)ccc1N1CCOCC1	-8

2 entries picked at random from the list so far:
SMILES	Mtb betalactam
COc1cccc(NC(=O)[C@@H]2CCC(=O)N2C2OC(=O)c3ccccc32)c1 (stereo not given in full)	-2
c1ccc(C[C@H]2CN=C(Nc3ccccc3)N2CC2CCCCCC2)cc1	5
